From PubChem BioAssay
Ecoli rRNA inh – inhibits bacterial ribosomal RNA function over humanized ribosomes; E. coli WT GFP vs humanized-ribosome RFP mutants, fluorescence, 24 h; active compounds read low; DMSO median 0, no signal -100; GFP signal change (wild-type ribosome), % (no concentration beside the values); hit rate 1.6% among 350,000; AID 720706;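 active = significant combined selectivity score with lowered wild-type GFP, culture density cut under 30%, mutant RFP and density less affected; inactive = any of these conditions unmet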; note: one replicate is shown; some compounds called inactive have numbers as strong as hits
MLL AF4-AF9 inh – inhibitors of human MLL-AF4/AF9 interaction. P42568. AlphaScreen, biotin-AF4 peptide binding to FLAG-AF9. inhibition, % at 10 µM. hit rate 0.47% among 350,000;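 active = every replicate reaching a set inhibition limit, whatever the replicate mean, cut at about 25% in these data; inconclusive = mean inhibition reaches that limit but some replicates miss it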;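 note: 0% = plate neutral control median and 100% = total signal loss; the record names both 10 and 1 µM as test concentration; the first replicate is given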
Target sequence (P42568 whole entry, looked up): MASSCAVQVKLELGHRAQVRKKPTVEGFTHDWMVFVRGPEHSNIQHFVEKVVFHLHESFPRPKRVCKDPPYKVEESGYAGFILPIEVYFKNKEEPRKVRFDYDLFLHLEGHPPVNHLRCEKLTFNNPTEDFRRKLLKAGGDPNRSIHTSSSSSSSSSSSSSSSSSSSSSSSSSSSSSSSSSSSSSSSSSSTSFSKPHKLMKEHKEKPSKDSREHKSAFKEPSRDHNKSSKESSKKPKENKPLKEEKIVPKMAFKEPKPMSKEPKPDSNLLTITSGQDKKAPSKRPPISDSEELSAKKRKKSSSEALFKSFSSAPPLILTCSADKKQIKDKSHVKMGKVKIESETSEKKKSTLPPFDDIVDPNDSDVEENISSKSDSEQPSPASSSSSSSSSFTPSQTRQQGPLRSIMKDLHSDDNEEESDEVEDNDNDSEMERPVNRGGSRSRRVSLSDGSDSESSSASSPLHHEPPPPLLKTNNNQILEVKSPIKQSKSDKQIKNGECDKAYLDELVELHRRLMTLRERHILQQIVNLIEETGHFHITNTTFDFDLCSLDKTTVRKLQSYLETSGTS
Ecoli rRNA inh OD600 – recorded beside Ecoli rRNA inh, whose call it bears; OD600 change, %; measured here: OD600 growth;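 optical density of the mix in the first replicate; 0 = DMSO median and -100 = no signal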
Ecoli rRNA inh RFP – further read-out of Ecoli rRNA inh, marked with its call; RFP signal change, %; measured here: RFP humanized mutant strains;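 first replicate; 0 = DMSO median and -100 = no signal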
* hit, by the source's call; ? = inconclusive; & = joins results of further samples.

Results follow in this order: Ecoli rRNA inh OD600 | Ecoli rRNA inh | MLL AF4-AF9 inh | Ecoli rRNA inh RFP
CC(C)NC(=O)N1Cc2cc(C(=O)NC3CCC3)nc(-c3cccc(-c4cccnc4)c3)c2[C@H]1CCO
  -6 | -5 | 1.8 | 5.9
COc1ccccc1-c1cn(CC[C@H]2CC[C@H](NC(=O)C3CCCC3)[C@@H](CO)O2)nn1
  -1 | 1 | -0.7 | 2.7
C/C=C/c1ccc(C2[C@H]3CNC[C@@H]2N3C(=O)Nc2cc(F)ccc2F)cc1 (some centres not stated)
  -7&3 | 3&5 | 1.2&0.2 | -3.0&5.4
COc1ccc2c3c([nH]c2c1)[C@@H](CO)N(C(=O)Nc1ccc(F)cc1)CC31CCN(S(=O)(=O)c2ccccc2)CC1
  9 | -3 | -2.6 | 1.5
CC(C)NC(=O)N1[C@H](CO)[C@H](c2ccccc2)[C@@H]1CNCc1ccccc1
  -10 | -6 | -4.0 | 4.4
COc1ccccc1NC(=O)N1CC(=O)N2[C@@H](CO)[C@H](c3ccc(C#Cc4ccccc4)cc3)[C@@H]2C1
  -37 | -1 | -5.9 | 28
C[C@@H]1CN([C@H](C)CO)C(=O)c2cc(NC(=O)Cc3ccccc3)ccc2O[C@H]1CN(C)Cc1ccncc1
  -14 | -7 | -5.2 | -0.8
C[C@@H]1CN([C@@H](C)CO)C(=O)c2cc(NC(=O)CCCN(C)C)ccc2O[C@H]1CN(C)S(C)(=O)=O
  -1 | 3 | -3.6 | -1.4
CCNC(=O)[C@H]1[C@H](CO)[C@H]2Cn3c(ccc(-c4cccc(F)c4)c3=O)[C@@H]1N2C(C)=O
  2 | 1 | -1.9 | -0.9
C[C@@H]1CCCCO[C@H](CN(C)C(=O)Nc2ccc(C(F)(F)F)cc2)[C@H](C)CN([C@@H](C)CO)C(=O)c2cc(NC(=O)c3ccncc3)ccc2O1
  -2 | 0 | -0.1 | -0.9
O=C(c1cccnc1)N1CC(=O)N2[C@H](C1)[C@H](c1ccc(/C=C/c3ccccc3)cc1)[C@@H]2CO
  -10 | -2 | 37* | -0.4
O=C(Cc1ccccn1)N1CC(=O)N2[C@H](C1)[C@H](c1ccc(-c3ccccc3)cc1)[C@@H]2CO
  25 | 8 | 3.6 | 0.5
C[C@H]1CCCCO[C@H](CN(C)C(=O)Nc2ccc(C(F)(F)F)cc2)[C@@H](C)CN([C@@H](C)CO)C(=O)c2cc(NC(=O)c3ccncc3)ccc2O1
  -4 | -1 | -0.5 | 1.3
COc1ccc(-c2nnc3ccc(SCC(=O)N4CCN(c5ccccc5)CC4)nn23)cc1
  2 | 13 | -0.5 | -1.2
O=C(NC1CCCCC1)[C@H]1[C@H](CO)[C@H]2Cn3c(cccc3=O)[C@H]2N1CCc1ccccc1
  -7 | -4 | -1.0 | 0.0
CO[C@@H]1CN(C)C(=O)c2cc(NC(=O)Cc3ccccc3)ccc2OC[C@@H](C)N(CC2CC2)C[C@@H]1C
  13 | 2 | 0.9 | -0.4
N#Cc1cccc(-c2ccc(C3[C@H]4CNC[C@@H]3N4C(=O)Nc3ccc(F)cc3)cc2)c1 (some centres not stated)
  0&-49 | -8&-18 | 0.2&2.0 | 0.7&1.6
O=C(c1ccccc1)N1CC(=O)N2[C@@H](CO)[C@H](c3ccc(-c4ccccc4)cc3)[C@@H]2C1
  -3 | 0 | 0.0 | -1.4
COc1ccc2c3c([nH]c2c1)[C@H](CO)N(CC1CC1)CC31CN(C(=O)c2ccccc2F)C1
  2 | -5 | 2.9 | 4.3
COCC(=O)N1CC2(CN(Cc3ccc(Cl)cc3)C2)c2c([nH]c3cc(OC)ccc23)[C@@H]1CO
  -7 | -2 | ? | 0.1

Just Ecoli rRNA inh OD600, for some of the entries so far:
SMILES | Ecoli rRNA inh OD600
COCC(=O)N1CC2(CN(Cc3ccc(Cl)cc3)C2)c2c([nH]c3cc(OC)ccc23)[C@@H]1CO | -7
N#Cc1cccc(-c2ccc(C3[C@H]4CNC[C@@H]3N4C(=O)Nc3ccc(F)cc3)cc2)c1 (some centres not stated) | 0&-49
CO[C@@H]1CN(C)C(=O)c2cc(NC(=O)Cc3ccccc3)ccc2OC[C@@H](C)N(CC2CC2)C[C@@H]1C | 13
COc1ccc2c3c([nH]c2c1)[C@H](CO)N(CC1CC1)CC31CN(C(=O)c2ccccc2F)C1 | 2

More results:
Results follow in this order: Ecoli rRNA inh OD600 | Ecoli rRNA inh | MLL AF4-AF9 inh | Ecoli rRNA inh RFP
C[C@@H]1CN([C@H](C)CO)C(=O)Cc2cc(NC(=O)C3CC3)ccc2O[C@H]1CN(C)Cc1ccc(-c2ccccc2)cc1
  -20 | 4 | 3.4 | 6.3
O=C(C1CCC1)N1CC2(C1)[C@H](c1ccccc1)[C@H](CO)N2Cc1cncnc1
  14 | 3 | -0.1 | -0.7
COc1ccccc1NC(=O)CN(Cc1ccco1)C(=O)c1cc(Cl)c(OC)c(OC)c1
  -41 | -17 | 2.3 | -5.5
C[C@@H]1CCCCO[C@@H](CN(C)C(=O)c2ccccc2)[C@H](C)CN([C@@H](C)CO)C(=O)c2cc(NS(=O)(=O)c3cn(C)cn3)ccc2O1
  4 | 4 | -1.4 | -2.0
O=C(C[C@H]1C=C[C@H](NC(=O)c2ccncc2)[C@H](CO)O1)Nc1ccc(-c2ccccc2)cc1
  -1 | -3 | -4.2 | -2.5
COc1cccc(C#Cc2ccc([C@H]3[C@@H](CO)N4C(=O)CN(C(=O)c5ccncc5)C[C@@H]34)cc2)c1
  12 | 5 | -2.2 | 1.2
CC(=O)N1CC2(C1)[C@@H](c1ccccc1)[C@H](CO)N2C(=O)Cc1ccccc1
  27 | 7 | ? | -0.7
C[C@@H]1CN([C@@H](C)CO)C(=O)c2c(c3ccccc3n2C)-c2ccccc2CO[C@H]1CN(C)C(=O)Nc1ccnc(N2CCOCC2)c1
  6 | -3 | 3.8 | 3.5
O=C(Cc1ccncc1)N1CC(=O)N2[C@H](CO)[C@H](c3ccc(C4=CCCC4)cc3)[C@@H]2C1
  1 | 6 | 0.2 | -1.7
O=C(NCC[C@@H]1CC[C@H](NS(=O)(=O)Cc2ccccc2)[C@H](CO)O1)C1CCC1
  2 | 1 | -1.8 | 0.5
CC(=O)N1[C@@H]2Cn3c(cccc3=O)[C@H]1[C@@H](C(=O)N[C@@H](C)c1ccccc1)[C@@H]2CO
  4 | 4 | -0.5 | -1.2
CC(C)CC#Cc1ccc([C@@H]2[C@H](CO)N3C(=O)CN(C(=O)NC4CCCCC4)C[C@@H]23)cc1
  -34 | -2 | 0.5 | 36
CN1c2ccc(-c3cccc(F)c3)cc2[C@@H]2[C@@H](CCN2C(=O)C2CCC2)[C@H]1CO
  -76 | -57 | 8.6 | -9.0
CO[C@@H]1CN(C)C(=O)c2cc(NS(=O)(=O)c3ccc(C)cc3)ccc2OC[C@@H](C)N(Cc2nccs2)C[C@@H]1C
  -8 | 0 | 1.5 | 2.2
CNC[C@@H]1Oc2ccc(NS(=O)(=O)c3cn(C)cn3)cc2CC(=O)N([C@@H](C)CO)C[C@H]1C
  3 | -2 | -6.6 | -3.7
CCCN1[C@H](C(=O)NC2Cc3ccccc3C2)[C@@H](CO)[C@@H]2Cn3c(ccc(C4=CCCC4)c3=O)[C@@H]21
  -10 | -7 | 2.8 | 9.1
CCC(=O)N1CC2(C1)[C@@H](c1ccccc1)[C@H](CO)N2CC1CCOCC1
  5 | 3 | -3.7 | -2.8
Cc1occc1-c1nnc(SCC(=O)NC2CCCCC2C)o1 (configuration not stated)
  3 | 5 | 0.7 | 1.2
OC[C@@H]1Nc2ccc(C#Cc3cccc(F)c3)cc2[C@H]2NCC[C@@H]12
  -3 | -1 | 15 | -1.9
O=C(C[C@H]1CC[C@H](NC(=O)CCN2CCCCC2)[C@@H](CO)O1)Nc1ccccc1
  2 | 0 | -1.4 | -3.6
O=C(C[C@@H]1C=C[C@@H](NC(=O)c2ccncc2)[C@@H](CO)O1)Nc1ccccc1
  9 | 4 | -2.5 | -0.5
CO[C@@H]1CN(C)C(=O)c2ccc(NC(=O)C3CCOCC3)cc2OC[C@@H](C)NC[C@H]1C
  2 | 1 | -2.7 | 0.1
COCC(=O)N1CC(=O)N2[C@@H](CO)[C@H](c3ccc(C#Cc4cccnc4)cc3)[C@@H]2C1
  3 | 5 | -4.8 | -0.4
COc1ccccc1CN1C[C@@H]2N[C@H](C1)C2c1ccc(/C=C/c2ccccc2)cc1 (some centres not stated)
  -80&-80 | -57&-58 | 30* | -12&-13
COc1cccc(-c2ccc([C@H]3[C@@H](CO)N4C(=O)CN(C(=O)C5CCCCC5)C[C@@H]34)cc2)c1
  -20 | -4 | 1.5 | 3.6
O=C(c1cnccn1)N1CC(=O)N2[C@@H](CO)[C@H](c3ccc(C#CC4CC4)cc3)[C@@H]2C1
  5 | 3 | 0.3 | 4.0
CC(C)CC#Cc1ccc([C@@H]2[C@H](CO)N3C(=O)CN(C(=O)c4ccc5c(c4)OCO5)C[C@@H]23)cc1
  -63 | -29 | 2.3 | 9.9
O=C(c1ccccn1)N1CC(=O)N2[C@@H](CO)[C@@H](c3ccc(C#CCc4ccccc4)cc3)[C@@H]2C1
  3 | 0 | -4.1 | 0.5
O=C(c1ccc(F)cc1)N1CC(=O)N2[C@H](CO)[C@H](c3ccc(-c4ccccc4F)cc3)[C@@H]2C1
  -10 | 0 | 0.6 | 3.2
CCS(=O)(=O)N1CC2(CN(C(=O)Cc3ccccn3)[C@@H](CO)c3[nH]c4cc(OC)ccc4c32)C1
  10 | 3 | -3.5 | -2.7
C[C@@H]1CCCCO[C@H](CN(C)Cc2ccc(C(=O)O)cc2)[C@H](C)CN([C@@H](C)CO)C(=O)c2cc(NC(=O)Nc3ccc(F)cc3)ccc2O1
  -2 | 1 | -1.5 | -4.4
CO[C@H]1CN(C)C(=O)c2ccc(NC(C)=O)cc2OC[C@H](C)N(C(=O)C2CC2)C[C@@H]1C
  12 | 4 | -4.0 | -1.5
CO[C@@H]1CN(C)C(=O)c2ccc(NC(C)=O)cc2OC[C@@H](C)N(C(=O)Cc2cccnc2)C[C@H]1C
  1 | 3 | -0.4 | 1.1
Cc1ccc(S(=O)(=O)N(C)C[C@H]2Oc3ccc(NC(=O)NC(C)C)cc3C(=O)N([C@H](C)CO)C[C@@H]2C)cc1
  -5 | -5 | -1.0 | 2.1
O=C(Cn1cc(COc2ccc3ccccc3c2)nn1)NS(=O)(=O)c1cccc(OC(F)F)c1
  -7 | 2 | -0.9 | 12
COc1ccc(-c2ccccc2[C@H]2[C@@H](CO)N(C(=O)NC3CCCC3)[C@H]2C#N)cc1
  -33 | -5 | -1.8 | -4.1
Cc1ccc(S(=O)(=O)Nc2ccc3c(c2)C(=O)N([C@H](C)CO)C[C@H](C)[C@H](CN(C)Cc2ccc(Cl)c(Cl)c2)OCCCC[C@@H](C)O3)cc1
  0 | 4 | -1.2 | -0.4
O=C(Nc1ccc(F)cc1)N1CC(=O)N2[C@H](CO)[C@H](c3ccc(C#Cc4cccnc4)cc3)[C@H]2C1
  -6 | -10 | -1.5 | -0.1
Cc1ccc(S(=O)(=O)Nc2ccc3c(c2)C(=O)N([C@H](C)CO)C[C@H](C)[C@H](CN(C)C(=O)C2CCCCC2)OCCCC[C@H](C)O3)cc1
  -12 | -1 | 1.2 | 0.7
O=C(C[C@H]1CC[C@H](NC(=O)CC2CC2)[C@@H](CO)O1)NCc1ccccc1
  7 | 4 | 3.9 | 2.4

A different layout for part of the listing above:
SMILES,Ecoli rRNA inh OD600,Ecoli rRNA inh,MLL AF4-AF9 inh,Ecoli rRNA inh RFP
CO[C@H]1CN(C)C(=O)c2ccc(NC(C)=O)cc2OC[C@H](C)N(C(=O)C2CC2)C[C@@H]1C,12,4,-4.0,-1.5
CO[C@@H]1CN(C)C(=O)c2ccc(NC(C)=O)cc2OC[C@@H](C)N(C(=O)Cc2cccnc2)C[C@H]1C,1,3,-0.4,1.1
Cc1ccc(S(=O)(=O)N(C)C[C@H]2Oc3ccc(NC(=O)NC(C)C)cc3C(=O)N([C@H](C)CO)C[C@@H]2C)cc1,-5,-5,-1.0,2.1

More structures follow.
Results follow in this order: Ecoli rRNA inh OD600 | Ecoli rRNA inh | MLL AF4-AF9 inh | Ecoli rRNA inh RFP
CC=Cc1ccc2n(c1=O)C[C@@H]1[C@@H](CO)[C@H](C(=O)NCCC)N(C(=O)c3cccnc3)[C@H]21 (mixture of isomers)
  6 | 2 | -4.1 | -1.9
O=C(C[C@@H]1CC[C@H]2[C@@H](COC[C@H](O)CN2S(=O)(=O)c2ccc(Oc3ccccc3)cc2)O1)Nc1ccccc1
  -32 | -1 | 5.6 | 17
Cc1noc(C)c1NC(=O)N(C)C[C@@H]1OCCCC[C@@H](C)Oc2ccc(NC(=O)c3ccccc3)cc2C(=O)N([C@H](C)CO)C[C@H]1C
  -4 | 0 | -2.5 | -1.4
O=C(C[C@@H]1C=C[C@@H](NC(=O)CC2CC2)[C@H](CO)O1)NCc1ccccc1
  12 | -2 | -4.2 | -6.1
O=C1CNC[C@H]2[C@H](c3ccc(-c4ccccc4F)cc3)[C@H](CO)N12
  0 | -2 | -0.8 | 1.4
O=C(c1ccc(F)cc1)N1CC[C@H]2[C@H](CO)Nc3ccc(C#Cc4ccccc4F)cc3[C@H]21
  1 | -1 | 4.9 | 11
C[C@H]1CCCCO[C@H](CN(C)C(=O)c2ccccc2)[C@@H](C)CN([C@@H](C)CO)C(=O)c2cc(NC(=O)Nc3ccc4c(c3)OCO4)ccc2O1
  -6 | -2 | 1.6 | 0.4

Some of the compounds tested. The share of hits here may be higher or lower than overall.
